Compound activity as filed in PubChem.
VDR inhibitor: inhibitors of human vitamin D receptor. P11473. Potency, µM, without a hit: max response, negative = inhibition, hits mostly inhibitors. hit rate 0.93% among 400,000. AID 504847. VDR-SRC2-3 peptide fluorescence polarization, 2 h; active means well fitted inhibition curve with a large enough effect; inconclusive means small, poorly fitted or top-dose-only effect, or another doubt; inactive means no such curve, though single readings can be large or run the other way; further: series mostly up to about 120 µM
Target sequence (P11473 whole entry, looked up): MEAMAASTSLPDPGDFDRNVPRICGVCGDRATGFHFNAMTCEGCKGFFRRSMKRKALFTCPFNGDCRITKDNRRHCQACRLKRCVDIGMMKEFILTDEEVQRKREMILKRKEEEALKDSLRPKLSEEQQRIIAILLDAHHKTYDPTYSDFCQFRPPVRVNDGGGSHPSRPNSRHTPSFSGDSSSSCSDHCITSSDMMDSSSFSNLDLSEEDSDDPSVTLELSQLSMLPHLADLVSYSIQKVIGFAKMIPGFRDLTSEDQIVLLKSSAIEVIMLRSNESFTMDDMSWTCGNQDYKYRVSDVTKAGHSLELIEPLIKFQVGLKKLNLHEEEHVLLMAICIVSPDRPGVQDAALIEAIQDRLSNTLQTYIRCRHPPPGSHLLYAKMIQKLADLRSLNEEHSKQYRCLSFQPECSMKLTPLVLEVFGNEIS
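Compounds are added to VDR with labelled SRC2-3 coactivator peptide and held 2 h at room temperature. Inhibition of the VDR–peptide interaction is then read as a change in fluorescence polarization.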
Numbers without * were called inactive; ? = inconclusive; & = joins results of further samples. On the % scale 0 is the no-effect control and ±100 the full control effect; potency means the concentration at half of the fitted maximal effect.

SMILES	VDR inhibitor
O=C(Nc1ccc([N+](=O)[O-])cc1)C1COc2ccccc2O1 (configuration not stated)	-13%
COc1ccc2[nH]c3c(N4CC(C)OC(C)C4)ncnc3c2c1 (configuration not stated)	-5%
Cc1ccc(S(=O)(=O)n2c(CN3CCCC(C)C3)nc3ccccc32)cc1 (configuration not stated)	6%
CCCN(CCO)Cc1ccc(Cl)c(Cl)c1	-6%
N/C(=N\OS(=O)(=O)c1ccccc1)c1ccncc1	1%
CCOC(=O)N(NC(=O)C(O)(C(C)C)C(C)C)c1ccccc1	-2%
Cc1cc(C(=O)Nc2ccccc2)oc1C	6%
COc1ccc(Cl)cc1NCCC(O)c1ccc(F)cc1 (configuration not stated)	-1%
O=S(=O)(Nc1ccccc1N1CCOCC1)c1c(F)cc(F)cc1Br	-21%
C/C(=N\NC(=O)c1c(C)nc2ccccn12)c1ccc(C(C)(C)C)cc1	12%
O=C(COc1ccc(Cl)cc1)N1CCN(C(=O)c2cccc(F)c2)CC1	13%
C/C(CC(=O)Nc1cccc(C(F)(F)F)c1)=N\NC(=O)Cc1ccccc1	10%
Cc1ccc(NC(=O)N(CCCN2CCOCC2)Cc2cccs2)cc1C	3%
COC(=O)C1(CCSC)NC(c2ccccc2F)C2C(=O)N(c3ccc4c(c3)OCCO4)C(=O)C21 (configuration not stated)	13%
Cc1cccc(COc2ccc(-c3cc(C(F)(F)F)n4nc(C)cc4n3)cc2)c1	-12%
CC(C)(C)N1NC2(CCCCC2)NC1=S	2%
CCOc1ccccc1NC(=O)COn1nnc2ccc(Cl)cc21	4%
COCOc1ccc(-c2cc(=O)c3c(OCOC)cc(OCOC)cc3o2)cc1	-10%
CCN1CCN(C(=O)c2cc3c(=O)n4ccccc4nc3s2)CC1	-20%
Cn1c(SCC(=O)NCC2CCCO2)nc2c(c1=O)SCC2 (configuration not stated)	-11%
COc1ccccc1CNC(=O)CN(C)CC(=O)Nc1cccc(F)c1	-1%
CCC(=O)Nc1sc2c(c1C(=O)Nc1cccc(C)c1)CCCC2	8%
COc1cccc(N2C(=NC(=O)c3ccccc3)SC3CS(=O)(=O)CC32)c1 (configuration not stated)	3%
CC(=O)c1ccc(N2CCN(c3nc4c(S(=O)(=O)c5ccccc5)nnn4c4ccc(Cl)cc34)CC2)cc1	-11%
CSc1ccc(CNCc2ccc3c(c2)OCO3)cc1	-12%
(cont.)
SMILES	VDR inhibitor
CC/C(=N/NC(=O)c1ccc(Br)cc1)c1ccc(OCCN2CCOCC2)cc1	1%
Nc1cccc(NC(=O)c2cccs2)c1	-15%
Cc1ccc(O)c(NC(=O)c2ccco2)c1	-1%
CC(=O)NC(c1ccco1)c1cc(Cl)c2ccccc2c1O (configuration not stated)	-6%
COC(=O)C(NC(=O)C(C)Oc1ccccc1)C(C)C (configuration not stated)	4%
O=[N+]([O-])c1ccc(-c2nnc3cccc(Cl)n23)cc1	-16%
COC(=O)Oc1c(Br)c(=O)oc2ccccc12	14%
COc1ccc(NC(=O)CSc2nnc(Cn3cnc([N+](=O)[O-])n3)n2C)cc1	-18%
COCCNC(=S)NC1CC2CCC(C1)N2Cc1ccccc1 (configuration not stated)	-8%
O=C(NC(=O)c1ccc(Cl)cc1)Nc1cc(N2CCCCC2)ncn1	?
Cc1ccc(CCNC(=O)CN(c2ccc(C)cc2)S(=O)(=O)N(C)C)cc1	-7%
COc1ccccc1NC(=O)CSc1n[nH]c(-c2cccnc2)n1	2%
CC(=O)N(Cc1cc2c(C)cc(C)cc2[nH]c1=O)C1CCCCC1	10%
O=C(Nc1nc(-c2ccccc2)ns1)c1cccs1	7%
CCOC(=O)C1=C(C)N(CCCC(=O)O)C(=O)NC1c1ccccc1Cl (configuration not stated)	1%
CCCCOC(=O)c1c(C)oc2ccc(NS(=O)(=O)c3ccc(F)cc3C)cc12	-2%
CCOC(=O)c1ccc(Nc2nc(C)cc(C)n2)cc1	-5%&-2%
CC1=NN(C(N)=S)C(=O)C1N=Nc1cccc([N+](=O)[O-])c1 (configuration not stated)	-6%
Cc1ccc(C)c(N2CCN(S(=O)(=O)c3c(C)noc3C)CC2)c1	1%
COc1ccc(NC(=O)CCCCCn2nnc3ccccc3c2=O)cc1	-8%
Cc1ccc(C(=O)Nc2ccc(N3CCN(C(=O)c4cccs4)CC3)cc2)c(Cl)c1	4%
Cc1cc2occ(CC(=O)N(C)CC(=O)Nc3cccc(F)c3)c2cc1C	-6%
CC(C)N1CCc2c(sc(NC(=O)c3ccc(S(=O)(=O)N4CCOCC4)cc3)c2C#N)C1	-4%
CCN(CC)C(=O)Cn1cnc2ccccc2c1=O	-5%
CCCNC(=O)CC1C(=O)N(Cc2ccccc2)C(C)c2nc3ccccc3n21 (configuration not stated)	-10%
Following part:
SMILES	VDR inhibitor
O=C(C1CCN(C2CC(=O)N(Cc3ccccc3)C2=O)CC1)N1CCCCCC1 (configuration not stated)	3%
Cc1cc(C(=O)NCC(c2ccco2)N(C)C)ccc1[N+](=O)[O-] (configuration not stated)	13%
C#CC(C)(C)NS(=O)(=O)c1cc(-c2nnc(Nc3ccc(C)cc3)c3ccccc23)ccc1C	2%
COCCn1c(C)cc(O)c(C(c2ccc(F)cc2)N2CCC(C)CC2)c1=O (configuration not stated)	6%
CCOC(=O)C1(Cc2cccc(F)c2)CCN(Cc2ccon2)CC1	8%
CCc1ccc(C(=O)CN2C(=O)NC3(CCCCCC3)C2=O)cc1	0%
COc1cccc(NC(=S)NNC(=O)c2c([N+](=O)[O-])c(C)nn2C)c1	4%
Cc1c(N/C=C/C(=O)c2cccs2)c(=O)n(-c2ccccc2)n1C	-5%
CCN(CC(=O)Nc1c(F)cccc1F)C(=O)c1ccc(Cl)c(S(=O)(=O)N2CCCC2)c1	-4%
O=C(CSc1ncnc2sc3c(c12)CCC3)Nc1ccccc1C(=O)O	-17%
Cc1nnc(NCCc2ccccc2)n(N)c1=O	-5%
COc1ccc(Cl)cc1NC(=O)N1CCC(CN2CCc3ccccc3C2)CC1	14%
COc1ccccc1OC(=O)c1ccc2nsnc2c1	-2%
S=c1nc(C2CC2)n(-c2ccccc2)[nH]1	6%
Cn1c(CN2CCCCC2)nc2cc(NC(=O)c3ccc(Cl)cc3)ccc21	-5%&-2%
Cc1ccc(N2CCN(C(=O)c3nn(C)c4c3CS(=O)(=O)c3ccccc3-4)CC2)c(C)c1	3%&1%
COc1ccc(Cn2c(C(=O)O)c(CNCc3ccco3)c3ccc(C)cc32)cc1	13%
O=S(=O)(NCCc1ccccn1)c1cc(Cl)cc(Cl)c1O	0%
CC(C)C(NC(=O)c1ccc(Cl)cc1)C(=O)NC1=NCCS1 (configuration not stated)	-5%
CCCCOc1cccc(C(=O)N(Cc2sccc2C)C2CCS(=O)(=O)C2)c1 (configuration not stated)	3%
COC(=O)[C@@]12CCCCN1[C@H](c1ccc(-c3ccc(C(C)=O)cc3)cc1)[C@H]1C(=O)N(C)C(=O)[C@H]12	-9%
CN(C)C(=O)c1ccccc1Sc1ccc(Cl)cc1Cl	6%
COc1ccccc1C1C=C(c2ccc(Cl)cc2)Nc2nc(N3C(=O)CCC3=O)nn21 (configuration not stated)	0%
Cc1ccc(NC(=O)CCNC(=O)c2ccc(Br)cc2)cc1S(=O)(=O)N1CCCCCC1	-3%
O=C(O)c1ccccc1NSc1ccccc1[N+](=O)[O-]	-20%
Going on with the list.
SMILES	VDR inhibitor
CCC(C)C(NC(=O)C(N)CC(C)C)C(=O)NC(CCC(=O)OCc1ccccc1)C(N)=O (configuration not stated)	-6%
Cc1ccccc1CSc1nc2cccnc2n1Cc1ccc(C(=O)NCCc2cccs2)cc1	5%
CS(=O)(=O)c1ccc2nc(NC(=O)CCNC(=O)c3ccc([N+](=O)[O-])cc3)sc2c1	-8%
Cc1ccc(NC2Sc3ccccc3NC2=O)cc1Cl (configuration not stated)	-9%
Cc1ccc(-n2nc3c(c2NC(=O)c2ccc4c(c2)OCO4)CSC3)c(C)c1	-11%
COc1ccc(N2CCN(C(=O)CCn3c(=O)[nH]c4cc(OC)c(OC)cc4c3=O)CC2)cc1	-18%
COc1ccc(-c2cnc[nH]2)cc1	-5%
COc1ccc(S(=O)(=O)n2nc(C)cc2C)cc1OC	11%
Cc1ccc(-n2ncc3c(NCc4ccc5c(c4)OCO5)ncnc32)c(C)c1	12%
COC(=O)c1ccc(SCc2ccccc2)nc1	-6%
O=S(=O)(NCC(c1cccnc1)N1CCN(c2ccc(F)cc2)CC1)c1cc(F)ccc1F (configuration not stated)	1%
COc1ccc(OC)c(C2=NNC(=NCc3ccc4c(c3)OCO4)SC2)c1	-16%
CCOC(=O)C(=CNc1cccc(C)c1C)C(=O)OCC	4%
Cc1cc(C)n2c(Nc3ccc(Cl)cc3)c(-c3ccsc3)nc2n1	-3%
COc1ccc(S(=O)(=O)N2CCOCC2)cc1NC(=O)COC(=O)c1ccc(C)s1	15%
O=C(Nc1sc2c(c1C(=O)Nc1cccc(Cl)c1)CCCC2)c1cccs1	25µM*
CC(OC(=O)CCN=C1NS(=O)(=O)c2ccccc21)C(=O)N(C)C1CCCCC1 (configuration not stated)	-9%
CN1CCN(C2CCN(c3ccc(Nc4nnc(Cl)c(Nc5ccccc5S(C)(=O)=O)n4)c(OC(CF)CF)c3)CC2)CC1	5%
CCc1ccccc1N(C)S(=O)(=O)c1ccc2[nH]cc(C(=O)N3CCc4ccccc43)c(=O)c2c1	1%
CC(C)CNC(=S)NC(=O)c1csc([N+](=O)[O-])c1	-18%
COC(=O)C1=CN(Cc2ccc(F)cc2)C=C(C(=O)OC)C1c1cc(OC)c(OC)c(OC)c1	-20%
Cn1c(/C=C/c2ccc(Cl)cc2)c([N+](=O)[O-])c(=O)n(C)c1=O	-29%
O=C(Cn1cnc2c(nnn2-c2ccccc2)c1=O)NCCc1ccccc1	13%
Cc1c(Cl)cccc1-n1c(CCC(=O)O)ccc1-c1cccs1	-8%
CC1=NN(c2nc(-c3ccc(C)cc3)cs2)C(=O)C1N=Nc1cccc(C)c1 (configuration not stated)	-14%
(next part)
SMILES	VDR inhibitor
Nc1cc(=O)[nH]c(SCC(=O)NC2CCCc3ccccc32)n1 (configuration not stated)	9%
CC(CNC(=O)Cn1ncc2c3ccccc3n(Cc3cccc(Cl)c3)c2c1=O)c1ccccc1 (configuration not stated)	19%
COC(=O)Cn1c(CCS(=O)(=O)c2ccc(C)cc2)nc2ccccc21	9%&-17%
COc1cccc(Cn2c(=O)c(-c3ccc(Cl)cc3)nc3cnc(N(C)C)nc32)c1	-5%
N/C(=N\c1nc2ccccc2o1)NC(=O)c1cccc(Br)c1	-1%
CSc1ccc(S(=O)(=O)NC2CCCCCC2)cc1	1%
C/[N+]([O-])=C\C1C(=O)CC(C)(C)CC1=O	7%
Cc1nc(C(F)(F)F)c(C(=O)O)cc1-c1nc(-c2ccccc2)cs1	0%
CCOC(=O)c1c(NC(=O)Cn2cnc([N+](=O)[O-])n2)sc(C)c1C	-10%
Cn1c(=O)c2ccccc2n2c(CCC(=O)N3CCN(c4cccc(Cl)c4)CC3)nnc12	-5%
Cc1cccc(NC(=O)Nc2ccc(Br)cc2)n1	-19%&-7%
Nc1c(C=C2C=CC(=O)C=C2)c(=O)nc2sc(CC(=O)N3CCCCC3)nn12	2%
O=C(COC(=O)c1cccnc1Cl)NC(=O)NC1CCCCC1	2%
CC1CCN(C(=O)C(Cc2ccccc2)NS(=O)(=O)c2ccc3c(c2)oc(=O)n3C)CC1 (configuration not stated)	6%
COC(=O)Cc1cc(=O)n2[nH]cnc2n1	7%
Cc1ccc(-c2nn(CCC(=O)Nc3ccc(Cl)c(Cl)c3)c(=O)c3ccccc23)cc1	-13%
FC(F)(F)c1cccnc1-n1cncn1	8%
CCOC(=O)/C=C/[C@H]1CCc2cccc(Cl)c2O1	-25%
O=S(=O)(CCc1ccncc1)c1ccc(Cl)cc1	-6%
COc1cc(/C=N/N=C(N)N)ccc1OCc1ccc(Cl)cc1	5%
Cc1ccc(CSc2nc3ccc(NC(=O)COc4ccccc4F)cc3s2)cc1	3%
Cc1cc(C)c(Cn2c3ccccc3c3cnn(CC(=O)NCc4cccs4)c(=O)c32)c(C)c1	4%
O=C(CCCN1C(=O)/C(=C\c2cccs2)SC1=S)Nc1ccc(O)cc1	-7%
Cc1ccc(NC(=O)c2cc(-c3cccc(O)c3)on2)cc1C	-4%
COn1c(-c2ccccc2)nc2ncccc21	-10%
COc1ccccc1N1CCN(S(=O)(=O)c2ccc(Cl)cc2)CC1	6%

By substructure: the compounds so far containing two or more sulfur atoms.
SMILES	VDR inhibitor
Cn1c(SCC(=O)NCC2CCCO2)nc2c(c1=O)SCC2 (configuration not stated)	-11%
COc1cccc(N2C(=NC(=O)c3ccccc3)SC3CS(=O)(=O)CC32)c1 (configuration not stated)	3%
O=C(Nc1nc(-c2ccccc2)ns1)c1cccs1	7%
CC(C)N1CCc2c(sc(NC(=O)c3ccc(S(=O)(=O)N4CCOCC4)cc3)c2C#N)C1	-4%
O=C(CSc1ncnc2sc3c(c12)CCC3)Nc1ccccc1C(=O)O	-17%
CCCCOc1cccc(C(=O)N(Cc2sccc2C)C2CCS(=O)(=O)C2)c1 (configuration not stated)	3%
Cc1ccccc1CSc1nc2cccnc2n1Cc1ccc(C(=O)NCCc2cccs2)cc1	5%
CS(=O)(=O)c1ccc2nc(NC(=O)CCNC(=O)c3ccc([N+](=O)[O-])cc3)sc2c1	-8%
COc1ccc(S(=O)(=O)N2CCOCC2)cc1NC(=O)COC(=O)c1ccc(C)s1	15%
O=C(Nc1sc2c(c1C(=O)Nc1cccc(Cl)c1)CCCC2)c1cccs1	25µM*
CC(C)CNC(=S)NC(=O)c1csc([N+](=O)[O-])c1	-18%
CSc1ccc(S(=O)(=O)NC2CCCCCC2)cc1	1%
Cc1ccc(CSc2nc3ccc(NC(=O)COc4ccccc4F)cc3s2)cc1	3%
O=C(CCCN1C(=O)/C(=C\c2cccs2)SC1=S)Nc1ccc(O)cc1	-7%

Only part of the results is shown (hit frequency here may not be typical).
